Bioassay records: PubChem BioAssay, several laboratories
Rce1 inhib: yeast Rce1p protease inhibitors, primary screen, biochemical, fluorescence, cell-free homogeneous; CAAX prenyl protease 2 (Saccharomyces cerevisiae (strain ATCC 204508 / S288c)), Q03530; yeast membranes, quenched prenylated peptide cleavage fluorescence; calls only; hit rate 0.27% among 290,000; AID 2563, 2010;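 active = fall in fluorescence gain of 50% or more versus controls, with final raw signal at or below 3038400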;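 note: plate controls were neutral control wells for no effect and wells lacking membranes for full effect; tested at 10 µM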
Target sequence (Q03530 whole entry, looked up): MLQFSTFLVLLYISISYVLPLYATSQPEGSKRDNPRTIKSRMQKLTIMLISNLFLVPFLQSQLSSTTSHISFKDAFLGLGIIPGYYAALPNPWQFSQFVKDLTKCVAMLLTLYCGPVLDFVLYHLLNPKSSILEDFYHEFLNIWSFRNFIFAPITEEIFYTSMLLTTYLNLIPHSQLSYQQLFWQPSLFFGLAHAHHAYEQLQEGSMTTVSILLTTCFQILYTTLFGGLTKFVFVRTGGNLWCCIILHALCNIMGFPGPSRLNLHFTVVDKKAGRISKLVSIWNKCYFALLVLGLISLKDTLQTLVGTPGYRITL
Yeast UUG start: modulators of yeast start codon fidelity, primary screen, whole organism, S. cerevisiae, single point, plate reader; S. cerevisiae UUG-firefly luciferase reporter, luminescence/redox ratio; activity score, % at 18.7 µM; hit rate 0.13% among 350,000;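 active = replicate mean at a twofold rise or more, about +100% in these data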;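 note: firefly luciferase made from a UUG start codon reports start codon fidelity; reporter light over untreated wells divided by growth signal over untreated wells; some hits fall short of that in this replicate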
eIF4H FP inh: human eIF4H binding inhibitors, primary screen, translation initiation inhibitor project, biochemical, uHTS, fluorescence polarization; Eukaryotic translation initiation factor 4H (Homo sapiens), Q15056; eIF4H fluorescence polarization binding assay; inhibition, % at 35 µM; hit rate 0.94% among 290,000; AID 2012, 2009;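 active = 50% or more with normal probe brightness, or confirmed in later tests; about a fifth of its hits are not listed in these tables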;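 note: calls also rest on retests at 20 µM and on dose response follow-up; 0% = protein and probe with vehicle and 100% = probe without protein; strong numbers were not always called active; many hits fall short of the cut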
CSC inhib: cancer stem cell viability inhibitors, primary screen, luminescence; cancer stem cell-like cells viability; inhibition, % at 7.5 µM; hit rate 1.1% among 300,000;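 active = mean at 75% or more and at least half the replicates too; tested in HMLE shEcad cells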;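 note: 0% = median of negative and 100% = median of positive control wells; the first replicate is given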
PABP FP inh: PABP poly(A) RNA binding inhibitors, primary screen, biochemical, fluorescence polarization, uHTS. Polyadenylate-binding protein 1 (Homo sapiens), P11940. inhibition, % at 35 µM. hit rate 1% among 290,000;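 active = 50% or more with normal probe brightness, or confirmed in later tests; about a fifth of its hits are not listed in these tables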;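 note: calls also rest on retests at 20 µM and on dose response follow-up; controls were probe without protein and protein plus probe with vehicle; some compounds called inactive have numbers as strong as hits; many hits fall short of the cut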
Target sequence (P11940 whole entry, looked up): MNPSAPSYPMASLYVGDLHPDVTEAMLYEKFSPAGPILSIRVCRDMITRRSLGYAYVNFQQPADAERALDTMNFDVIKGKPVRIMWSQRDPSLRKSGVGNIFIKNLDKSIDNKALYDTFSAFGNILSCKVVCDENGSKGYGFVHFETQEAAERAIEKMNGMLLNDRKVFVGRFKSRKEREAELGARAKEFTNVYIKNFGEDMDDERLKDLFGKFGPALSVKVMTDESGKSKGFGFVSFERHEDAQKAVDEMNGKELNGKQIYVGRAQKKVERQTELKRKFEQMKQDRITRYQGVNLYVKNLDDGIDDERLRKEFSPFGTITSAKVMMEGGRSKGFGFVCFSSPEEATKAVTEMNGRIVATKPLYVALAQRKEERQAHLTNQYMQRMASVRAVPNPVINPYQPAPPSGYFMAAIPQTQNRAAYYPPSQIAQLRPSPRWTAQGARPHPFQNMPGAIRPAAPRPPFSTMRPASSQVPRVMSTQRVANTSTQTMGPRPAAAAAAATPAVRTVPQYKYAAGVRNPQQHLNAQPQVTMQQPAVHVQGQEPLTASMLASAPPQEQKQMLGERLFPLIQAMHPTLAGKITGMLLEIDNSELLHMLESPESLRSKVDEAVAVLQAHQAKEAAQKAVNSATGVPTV
Env fusion inh: inhibitors of HIV-1 Env-driven cell-cell fusion, primary screen, HeLa-JRFL effector, CEM21 target cells, luciferase; inhibition, % at 12.3 µM; hit rate 1.1% among 360,000; AID 651610, 2012;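 active = mean replicate inhibition score of at least 50 and every replicate individually at or above 50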;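 note: 0% = plate neutral controls and 100% = maraviroc near 300 nM; one replicate is shown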
MT1-MMP act inh: blockers of MT1-MMP proenzyme processing, primary screen, HT1080 RFP-PRO-GFP cells, GFP/RFP fluorescence | hit rate 0.061% among 360,000 | GFP/RFP ratio change, % at 20 µM | Matrix metalloproteinase-14 (Homo sapiens), P50281 | AID 651647, 2012 | GFP/RFP ratio fluorescence, overnight; percent of plate control window, DMSO zero;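 active = GFP/RFP ratio change of at least 30% with cell ATP level not reduced by more than half and red fluorescence within 50% of control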; note: strong numbers were not always called active
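Compound: 20 µM single dose, 1% DMSO / System: HT1080 RFP-PRO-GFP cells / Controls: DMSO and RFP-L50D-GFP cell wells / Read-out basis: GFP/RFP fluorescence ratio / Schedule: overnight compound exposure at 37 °C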
eIF4H FP inh retest: also measured in eIF4H FP inh; calls as there; inhibition, %; compound at 20 µM; confirmation average;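 mean of two retest wells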
PABP FP inh retest: also measured in PABP FP inh; calls as there; inhibition, %; compound at 20 µM; confirmation repeats;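 mean of two retest wells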
MT1-MMP act inh RFP: also measured in MT1-MMP act inh; calls as there; RFP signal change, %; measured here: RFP expression control read;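 0 = vehicle wells; hits needed this value within 50% of zero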
Active calls of the source: *; i = inactive; · = not tested or not shown. A portion of the library, so the mix of outcomes need not match the whole.

SMILES | Rce1 inhib | Yeast UUG start | eIF4H FP inh | CSC inhib | PABP FP inh | Env fusion inh | MT1-MMP act inh | MT1-MMP act inh RFP | others
CCn1cc(C(=O)N2CC(C)CC(C)C2)c(=O)c2cc(S(=O)(=O)N(C)C)ccc21 (centres undefined) | i | -2 | -1 | -7 | -3 | 2 | 4 | 4
COP1(=O)C=C[C@H](N(Cc2ccccc2)S(=O)(=O)c2ccccc2[N+](=O)[O-])[C@@H](C)O1 (some centres undefined) | i | 5 | -10 | -6 | 4 | -18 | -5 | -2
O=S(=O)(Nc1ncccn1)c1ccc(NS(=O)(=O)c2cc(Cl)ccc2Cl)cc1 | · | · | -2 | -14 | -7 | 0 | -1 | 0
Cc1cccn2c(=O)c3cc(C(=O)N4CCOCC4)n(C)c3nc12 | i | 0 | -7 | -2 | -11 | 18 | 2 | 1
O=C1NC(=O)/C(=C/c2ccc(OS(=O)(=O)c3ccc(F)cc3F)cc2)N1 | i | 1 | -5 | 26 | 14 | 13 | 12 | 1
COCCCNC(=O)c1ccc(CS(=O)(=O)c2ccc(Br)cc2)o1 | i | -7 | -8 | 15 | 3 | 13 | 7 | 1
O=C(NCC1CCCO1)c1ccc2c3n(nc2c1)-c1ccccc1CO3 (centres undefined) | i | -12 | -2 | 27 | 9 | -131 | 2 | -2
CC(C)CC1(C)NC(=O)N(CCN2C(=O)c3ccccc3C2=O)C1=O (centres undefined) | i | -20 | 0 | -7 | -8 | -3 | 3 | 0
CC1(C(=O)NS(=O)(=O)c2ccc(C#N)cc2)CCN1C(=O)c1cccc(F)c1 (centres undefined) | · | -8 | · | · | · | 5 | -4 | 4
Cc1cc(NC(=O)COC(=O)C2CCN(S(=O)(=O)c3c(Cl)cccc3Cl)CC2)no1 | i | 8 | -1 | 13 | -10 | · | 7 | 3
COc1cccc(CNC(=O)C2CCN(S(=O)(=O)N3CCCCC3)CC2)c1 | i | -2 | -4 | 2 | 5 | -12 | 2 | 1
CCc1cccc(C)c1NC(=O)C1CCN(C(=O)c2ccc([N+](=O)[O-])cc2)CC1 | · | · | -1 | -10 | 42 | -5 | 3 | 2
CCCc1cc(N2CCCC(C(=O)NCC)C2)n2ncnc2n1 (centres undefined) | i | -7 | -9 | · | 13 | -32 | 12 | 8
Cn1cnc(C(=O)NC2CCN(C(=O)OC(C)(C)C)CC2)c1C(=O)NC1CCN(C(=O)OC(C)(C)C)CC1 | · | -7 | · | 11 | · | 14 | 1 | 1
Cc1cc(Nc2ccc(F)c(Cl)c2)n2nc(C)nc2n1 | i | -16 | 0 | -24 | -2 | -48 | 15 | 3
O=C(CSc1nnc(CNC(=O)c2ccccc2F)o1)Nc1ccc2c(c1)OCCO2 | i | -11 | 0 | -3 | -16 | -11 | 5 | 3
COc1ccccc1-c1oc2ccccc2c1C#CCO | · | 2 | · | · | · | -11 | -5 | 2
CCn1c(SCc2ccc(C(=O)Nc3cc(C)cc(C)c3)cc2)nnc1-c1ccncc1 | i | · | 4 | 4 | -4 | · | 5 | -17
CN(NC(N)=O)c1ncc(C(F)(F)F)cc1Cl | i | -4 | -6 | · | -10 | -44 | -3 | 3
Cc1nnc(NC(=O)c2cccc(S(=O)(=O)N3CCc4ccccc43)c2)s1 | i | 1 | -1 | 8 | 7 | · | 2 | -5
CC(C)C[C@H]1CNC(=O)C(=O)N1CC1CCN(CCC(C)c2ccccc2)CC1 (some centres undefined) | · | 3 | · | · | · | -16 | 3 | 5
CCCn1nc2cc(C(=O)NCc3ccc(C)cc3)ccc2c1OCC | i | -11 | 1 | -12 | -4 | -10 | 4 | 4
O=C(/C=C/c1ccc([N+](=O)[O-])cc1)Nc1cccc(C(=O)Nc2ccccc2C(=O)O)c1 | · | 2 | 0 | 10 | 19 | 5 | -16 | -7
CCc1ccccc1NC(=O)CC1SCCNC1=O (centres undefined) | i | · | -7 | -8 | 0 | 13 | -3 | -1
CCCOC(=O)c1ccc2c(c1)C(=O)N(c1ccccc1)C2=O | · | -21 | -4 | · | -1 | · | 5 | 2
CC(C)Oc1ccc(C(=O)Nc2ccc(S(=O)(=O)N3CCN(C)CC3)cc2)cc1 | i | -4 | 1 | -5 | 4 | -2 | 0 | -11
O=C1C(Cl)=C(N2CCN(Cc3ccccc3)CC2)C(=O)N1Cc1ccccc1 | i | -10 | 18 | · | 31 | -14 | -8 | -5
N#Cc1cc2c(nc1SCc1cccc(Cl)c1)CCCCC2 | i | -51 | -8 | 9 | 3 | -46 | -8 | -5
CCc1nc(CNC(=O)c2cc(OC)c(OC)c(OC)c2)no1 | i | -7 | 21 | -2 | 36 | · | -3 | 3
COc1ccc(C(=O)O)cc1S(=O)(=O)NCCCN1CCCC1=O | i | -4 | 9 | -14 | 5 | · | -4 | 7
CCOC(=O)/C=C1\SCC(=O)N1CC(=O)NCCc1ccc(F)cc1 | i | -15 | -9 | -8 | -12 | -23 | 1 | 4
O=C(NC(C(=O)c1ccccc1)N1CCOCC1)c1cccs1 (centres undefined) | i | 2 | -6 | 31 | 2 | · | 3 | 3
Cc1ccc(-c2noc(COC(=O)c3ccco3)n2)cc1 | · | -6 | · | · | · | -5 | 3 | 4
C/C(=N/NC(=O)CNC(=O)c1cccnc1)c1ccco1 | i | -25 | 11 | 5 | 4 | -8 | -4 | 2
CC(=O)c1ccc(OCC(O)CN2CCN(Cc3ccccc3)CC2)cc1 (centres undefined) | i | -17 | -4 | 9 | 6 | · | -2 | 6
CC1CCCCN1S(=O)(=O)c1cn(C)c(=O)n(C)c1=O (centres undefined) | i | -17 | -1 | 0 | -3 | -12 | 4 | 8
Cc1ccccc1-c1nc2c(s1)CCc1onc(-c3cccc([N+](=O)[O-])c3)c1-2 | i | -21 | · | 6 | · | 1 | 0 | 0
O=C(Cc1cccc2ccccc12)N1CCN(c2ncccn2)CC1 | i | -16 | -5 | -6 | -7 | -1 | -5 | 0
O=[N+]([O-])c1ccc(-c2csc(N/N=C/c3cccnc3)n2)cc1 | i | · | -14 | 12 | 4 | -9 | 3 | -2
O=S(=O)(c1ccc(NC(=S)Nc2ccc3c(c2)OCO3)cc1)N1CCOCC1 | i | -24 | 94* | -4 | 2.8* | -37 | -10 | 7 | eIF4H FP inh retest=98*;PABP FP inh retest=106*

Taken from the listing (2 entries):
SMILES | Rce1 inhib | Yeast UUG start | eIF4H FP inh | CSC inhib | PABP FP inh | Env fusion inh | MT1-MMP act inh | MT1-MMP act inh RFP | others
CC(C)C[C@H]1CNC(=O)C(=O)N1CC1CCN(CCC(C)c2ccccc2)CC1 (some centres undefined) | · | 3 | · | · | · | -16 | 3 | 5
CCCn1nc2cc(C(=O)NCc3ccc(C)cc3)ccc2c1OCC | i | -11 | 1 | -12 | -4 | -10 | 4 | 4

Going on with the list.
SMILES | Rce1 inhib | Yeast UUG start | eIF4H FP inh | CSC inhib | PABP FP inh | Env fusion inh | MT1-MMP act inh | MT1-MMP act inh RFP | others
Cc1ccc(-n2ncc(C(=O)NC3CC3)c2C2CCN(C(=O)OC(C)(C)C)CC2)cc1 | i | 8 | 5 | -6 | 7 | -2 | 1 | 1
COc1cccc(CN2C(=O)NC3(CCCCCC3)C2=O)c1 | i | 0 | -10 | -6 | 16 | 8 | 4 | 3
CC(C)OCCCNC(=O)C1CC(=O)N(C2CCCCCCC2)C1 (centres undefined) | i | · | -8 | -6 | -8 | · | 3 | 4
COc1cc2[nH]c(=O)n(CCC(=O)NCc3cccnc3)c(=O)c2cc1OC | i | -22 | -5 | 0 | -2 | 25 | 4 | 5
O=C(NCc1ccco1)c1cc(-c2ccc(F)cc2)on1 | i | · | -12 | 2 | 2 | -204 | 6 | 3
O=C(CSc1nc2cc(Cl)ccc2o1)NCCc1ccccc1 | i | -31 | -4 | -9 | -10 | · | 1 | 1
COc1ccc(NC(=O)c2nc(C)n(-c3ccc([N+](=O)[O-])cc3)n2)cc1 | i | · | 13 | -10 | 4 | 15 | 2 | 3
CCC(=O)N1N=C(c2cccs2)CC1c1ccc(OC)cc1 (centres undefined) | i | -2 | 1 | -8 | 2 | 12 | -5 | -2
CCCCNC(=O)CSc1nc2ccc(NC(=O)CSc3nnc(COc4ccccc4C)n3C)cc2s1 | i | -15 | 2 | -5 | 3 | · | 6 | -4
CN(C(=O)CSc1nnc(-c2cccnc2)o1)C1CCCCC1 | · | -14 | · | -27 | · | · | 6 | 6
O=C(Nc1oc2ccccc2c(=O)c1-c1ccc(Cl)cc1)c1ccco1 | i | -17 | -8 | -10 | 5 | 2 | 0 | -4
CC1CCN(CCCNC(=O)C2CCCN(c3ncnc4c3nc3n4CCCCC3)C2)CC1 (centres undefined) | i | -10 | 27 | -1 | 32 | -3 | -2 | -4
CCN(CC(=O)Nc1ccccc1C(F)(F)F)C(=O)CCc1nc2sc3c(c2c(=O)[nH]1)CCCC3 | i | -40 | · | -14 | · | 2 | 1 | -1
O=C(CN1CCN(c2ccc(C(F)(F)F)cn2)CC1)Nc1ccc2c(c1)OCO2 | i | · | 0 | 19 | 2 | -9 | 0 | -2
COc1ccc2[nH]c3nc(SC(C)C)nnc3c2c1 | i | -4 | -3 | -12 | -1 | · | 6 | -11
CCc1ccc(OCC(=O)N/N=C(\C)c2ccccc2OC(F)F)cc1 | i | · | -10 | · | -12 | · | -1 | -2
COC(=O)CNC(=O)c1cc(-c2ccncc2)nc2ccccc12 | · | 7 | 3 | 10 | 7 | 0 | -3 | 0
C=CCNC(=O)NC(=O)COC(=O)CNS(=O)(=O)c1ccc(F)c(F)c1F | i | · | 0 | -14 | 9 | -1 | -1 | 2
COc1ccc(CCNC(=O)NC2CCCCC2)cc1 | i | -16 | -6 | 1 | -3 | -59 | 6 | 3
C=C(C)C(=O)Nc1cccnc1Oc1ccc(F)cc1 | i | -10 | 1 | -5 | 6 | 12 | -1 | 2
Cc1ccc(S(=O)(=O)NC(CC(=O)O)c2ccc(F)cc2)cc1 (centres undefined) | i | -20 | -4 | 6 | -4 | -4 | 3 | 7
CCCOC(=O)c1ccc(Oc2cn[nH]c2-c2ccc(O)cc2O)cc1 | i | · | -9 | 17 | 2 | 10 | -1 | -21
O=C(CSc1n[nH]c(=O)n1Cc1ccccc1)Nc1ccc(F)c(F)c1F | i | -19 | -8 | -8 | -7 | 15 | 0 | -10
Cc1ccc(NC(=O)COC(=O)Cc2cccs2)cc1S(=O)(=O)N1CCOCC1 | i | 9 | 11 | -3 | 6 | -9 | 3 | 2
COc1ccc(C(=O)OCn2nnc3ccccc3c2=O)cc1[N+](=O)[O-] | · | -11 | 4 | -8 | -14 | -3 | 1 | 4
COc1cccc(/C=C2/SC(=O)N(CC(=O)N3CCc4ccccc4C3)C2=O)c1OCC(=O)O | i | -19 | -13 | -1 | 1 | · | 1 | 1
CCCC(=O)NC(c1ccc(Cl)cc1)c1ccc2cccnc2c1O (centres undefined) | i | -10 | 4 | 106* | 7 | -10 | 1 | -9
CN(CC(=O)N1CCN(Cc2ccccc2)CC1)S(=O)(=O)c1cccc2nsnc12 | i | · | -1 | -2 | 7 | -2 | 0 | 1
CCc1ccccc1S(=O)(=O)Cc1ccc(C(=O)N2CCN(c3ccccc3OC)CC2)o1 | i | 8 | 8 | · | -5 | -5 | -1 | 1
CCn1c(=NC(=O)c2ccc(S(=O)(=O)N(C)C)cc2)sc2cccc(OC)c21 | i | · | -2 | 40 | 13 | 14 | -1 | -2
Cc1cccc(NC(=O)c2cc3ccccc3c(=O)o2)n1 | i | -47 | · | -20 | · | -99 | 0 | 1
